Bioassay records as filed in PubChem BioAssay.
Hedgehog inh = blocks Sonic Hedgehog signaling | AID 2313 | inhibition, % (no concentration beside the values) | actives 2.1% (n = 22,000) | Shh-LIGHT2 Gli-luciferase reporter, 30 h;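 active = replicate mean of 65% or more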;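 also: pathway switched on by Shh-conditioned medium diluted 1 in 25 in low serum; 100 nL library stock added to about 40 µL; 0% = median of neutral wells and 100% = positive control level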
MITF inhib = MITF inhibition; actives 0.28% (n = 37,000); AID 2240; inhibition, % (test concentration not listed); TRPM1 promoter luciferase, luminescence, 24 h;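 active = most replicates at 85% or more, or half of them and the mean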;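 also: human melanocyte line stably carrying TRPM1 promoter luciferase reporter; 0% = vehicle wells and 100% = a positive control; the first replicate is given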
PD-1 reversal = activators reversing PD-1 mediated T-cell inhibition | activation, % (concentration not given with the values) | AID 2316 | 29,000 tested, under 10 active | primary human CD4 T cells, PD-L1 beads, CellTiter-Glo 96 h;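 active = replicate mean of 50% or more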;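 also: 0% = median vehicle wells and 100% = positive control; 100 nL library stock added to about 50 µL; numbers are from one replicate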
YB-1 expression = YB-1 expression inhibition. U2OS, qRT-PCR YB-1 vs CDIP delta delta Cp, 16 h; hits give high values; zero = DMSO, each unit about twofold. delta delta Cp (YB-1 minus CDIP) (test concentration not listed). actives 0.37% (n = 30,000). AID 434959;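 active = delta delta Cp rounded down to an integer at or above 3, about 3 SD of DMSO wells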;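 also: higher means less YB-1 transcript or more CDIP transcript relative to DMSO; stock transfer was 100 nL into about 100 µL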
* marks the source's active call; other numbers are inactive results; . = not tested or not shown. The list is partial; rates above refer to the full screens.

structure	Hedgehog inh	MITF inhib	PD-1 reversal	YB-1 expression
COc1ccc(NC(=O)N(C)C[C@@H]2Oc3ccc(NS(=O)(=O)c4cn(C)cn4)cc3C(=O)N([C@@H](C)CO)C[C@@H]2C)cc1	.	-8	2.7	0.19
Cc1ccc(-c2nnc(SCC(=O)Nc3c(C)cc(C)cc3C)o2)cc1	.	-2	-2.6	.
C[C@@H]1CN([C@H](C)CO)C(=O)c2cc(NS(=O)(=O)c3ccccc3)ccc2O[C@@H]1CN(C)Cc1ccccc1	-2	4	.	-0.27
C[C@@H]1CN([C@@H](C)CO)C(=O)Cc2cc(NC(=O)Cn3cnnn3)ccc2O[C@@H]1CN(C)S(=O)(=O)c1cccs1	-33	-6	2.4	0.18
C[C@H]1CN([C@@H](C)CO)C(=O)Cc2cc(NC(=O)Cc3ccccc3)ccc2O[C@H]1CN(C)Cc1ccc(-c2ccccc2)cc1	-41	2	-2.1	-0.15
C[C@@H]1CN([C@@H](C)CO)C(=O)c2cccc(NC(=O)Nc3ccc(C(F)(F)F)cc3)c2O[C@@H]1CN(C)Cc1ccc(C(=O)O)cc1	-16	-7	1.0	-0.48
C[C@@H]1CN([C@H](C)CO)C(=O)c2cccc(NC(=O)Nc3ccccc3)c2O[C@H]1CN(C)S(=O)(=O)c1cccs1	13	9	-0.4	-0.11
CC1CCc2sc3ncnc(NCCN4CCOCC4)c3c2C1 (stereo not drawn)	.	-33	-1.8	.
Cc1cc(/C=C2/SC(=O)N(C(C)C)C2=O)c(C)n1-c1ccncc1	.	-8	-0.5	9.6*
N=C1CCCN1CC(=O)c1ccc(Br)cc1	-6	-63	0.4	-0.34
CCN(CC)S(=O)(=O)c1cccc2cc(C(=O)O)c(O)cc12	.	6	-0.4	-0.88
C[C@@H]1CN([C@H](C)CO)C(=O)Cc2cc(NS(=O)(=O)c3ccccc3)ccc2O[C@H]1CN(C)Cc1ccncc1	-15	-17	1.6	0.074
COc1ccc(NC(=O)N(C)C[C@H]2Oc3c(NC(=O)c4cc(C)nn4C)cccc3C(=O)N([C@@H](C)CO)C[C@H]2C)cc1	8	-8	-0.1	0.37
C[C@@H]1CN([C@H](C)CO)C(=O)c2cc(NC(=O)NC3CCCCC3)ccc2O[C@@H]1CN(C)Cc1ccc(Oc2ccccc2)cc1	91*	11	-4.2	0.27
O=C(O)c1ccccc1Nc1cccc(C(F)(F)F)c1	-32	-12	0.0	-0.43
COc1ccc(OCc2nc3ccccc3n2Cc2c(F)cccc2Cl)cc1	.	-25	-1.7	.
CSc1nc2ccccc2c(=O)n1CC(=O)C(C)(C)C	2	10	0.7	0.18
Cc1ccc(S(=O)(=O)N(C)C[C@@H]2Oc3ccc(NS(=O)(=O)c4ccc(F)cc4)cc3C(=O)N([C@H](C)CO)C[C@H]2C)cc1	1	-3	-0.1	0.32
C[C@@H]1CCCCO[C@@H](CN(C)C(=O)c2ccncc2)[C@@H](C)CN([C@H](C)CO)C(=O)c2cc(NS(C)(=O)=O)ccc2O1	-9	4	-0.5	0.05
C[C@H](CO)N1C[C@H](C)[C@@H](CN(C)Cc2ccncc2)Oc2ccc(NC(=O)Nc3cccc4ccccc34)cc2C1=O	33	1	-2.1	-0.096
O=C(CSc1nnc(-c2ccc(Cl)cc2)o1)N1c2ccccc2Sc2ccccc21	.	9	2.4	.
C[C@@H]1CCCCO[C@@H](CN(C)C(=O)C2CCCCC2)[C@@H](C)CN([C@H](C)CO)C(=O)c2cc(NC(=O)C3CCCCC3)ccc2O1	14	-4	1.0	-0.29
Cc1ccc(S(=O)(=O)N2CCOCC2)cc1NC(=O)c1cccc(S(=O)(=O)N2CCCC2)c1	.	-21	1.0	.
C[C@H]1CN([C@@H](C)CO)C(=O)Cc2cc(NC(=O)Nc3ccc4c(c3)OCO4)ccc2O[C@H]1CN(C)Cc1ccc2c(c1)OCO2	-15	-4	2.8	-0.075
Cc1cc(I)ccc1NC(=O)CN(c1cccc(C(F)(F)F)c1)S(C)(=O)=O	.	-7	-0.5	.

Some values from the entries so far:
Reading for `Cc1ccc(S(=O)(=O)N2CCOCC2)cc1NC(=O)c1cccc(S(=O)(=O)N2CCCC2)c1` in MITF inhib: -21
Reading for `C[C@@H]1CN([C@H](C)CO)C(=O)Cc2cc(NS(=O)(=O)c3ccccc3)ccc2O[C@H]1CN(C)Cc1ccncc1` in Hedgehog inh: -15

Only YB-1 expression, for some of the entries so far:
SMILES,YB-1 expression
C[C@@H]1CCCCO[C@@H](CN(C)C(=O)C2CCCCC2)[C@@H](C)CN([C@H](C)CO)C(=O)c2cc(NC(=O)C3CCCCC3)ccc2O1,-0.29
C[C@@H]1CN([C@@H](C)CO)C(=O)Cc2cc(NC(=O)Cn3cnnn3)ccc2O[C@@H]1CN(C)S(=O)(=O)c1cccs1,0.18

The listing continues:
structure	Hedgehog inh	MITF inhib	PD-1 reversal	YB-1 expression
C[C@@H]1CN([C@@H](C)CO)C(=O)Cc2cc(NC(=O)CCC(F)(F)F)ccc2O[C@@H]1CN(C)CC1CC1	6	-5	1.2	0.1
COc1ccc(S(=O)(=O)N(C)C[C@@H]2Oc3c(NC(=O)c4ccncc4)cccc3C(=O)N([C@@H](C)CO)C[C@H]2C)cc1	20	1	-1.2	0.71
Cc1oc2cc(O)ccc2c(=O)c1Oc1ccc(Cl)cc1	21	24	-3.4	-0.52
N#Cc1c(NC(=O)COc2ccc(C(=O)NC3CCCCC3)cc2)sc2c1CCC2	.	13	-0.8	.
COc1ccc(NC(=O)Nc2ccc3c(c2)C(=O)N([C@H](C)CO)C[C@@H](C)[C@@H](CN(C)C(=O)Nc2ccccc2)O3)cc1	-13	0	1.5	-0.011
C[C@@H]1CN([C@@H](C)CO)C(=O)c2cc(NS(=O)(=O)c3cccs3)ccc2O[C@H]1CN(C)C(=O)Nc1ccc2c(c1)OCO2	-32	-6	0.1	-0.32
O=C(O)CCc1nn2c3ccccc3nc2n(-c2ccccc2)c1=O	.	-3	-1.1	.
Cc1ccc(S(=O)(=O)N(C)C[C@@H]2Oc3ccc(NC(=O)Nc4c(C)noc4C)cc3C(=O)N([C@@H](C)CO)C[C@@H]2C)cc1	.	-5	2.1	-0.25
CC1(C)CC[C@]2(C(=O)O[C@@H]3O[C@H](CO)[C@@H](O)[C@H](O)[C@H]3O)CC[C@]3(C)C(=CCC4[C@@]5(C)C[C@@H](O)[C@H](O)[C@@](C)(CO)C5CC[C@]43C)C2[C@@H]1O (stereo partly drawn)	-29	-1	1.6	-0.2
C[C@@H]1CN([C@@H](C)CO)C(=O)c2cccc(N(C)C)c2O[C@H]1CN(C)Cc1ccc(C(=O)O)cc1	22	-6	.	-0.068
C[C@@H]1CN([C@H](C)CO)C(=O)c2cc(NC(=O)Nc3ccc(F)cc3)ccc2O[C@@H]1CN(C)C(=O)Nc1ccc(C(F)(F)F)cc1	-5	13	-1.9	-0.2
COc1ccc(NC(=O)N(C)C[C@@H]2Oc3ccc(NS(=O)(=O)c4cccs4)cc3C(=O)N([C@H](C)CO)C[C@H]2C)cc1	.	7	0.0	0.28
COc1ccc(CN(C)C[C@@H]2Oc3ccc(NC(=O)C4CC4)cc3CC(=O)N([C@H](C)CO)C[C@H]2C)cc1	.	-4	0.7	-0.47
O=C1C=CC(O)(/C=C/C(=O)OC[C@H]2O[C@@H](Oc3ccc(O)cc3)[C@H](O)[C@@H](OC(=O)/C=C/C3(O)C=CC(=O)C=C3)[C@@H]2O)C=C1	-5	-5	-10	0.08
COc1ccc(NC(=O)CN(c2cccc(Cl)c2)S(C)(=O)=O)cc1	.	-17	0.5	.
C[C@H](CO)N1C[C@H](C)[C@H](CN(C)CC2CC2)Oc2ccc(NS(=O)(=O)c3ccccc3)cc2CC1=O	-6	-5	-0.3	-0.13
COc1cccc(-c2nnc(SCC(N)=O)n2-c2ccc(Cl)cc2)c1	.	-12	-2.1	.
Nc1nnc(SCC(=O)Nc2ccccc2N2CCOCC2)s1	.	-9	0.7	.
O=c1nc(NCc2ccco2)sc2ncccc12	.	-18	0.6	.
C[C@@H]1CN([C@H](C)CO)C(=O)c2cc(NC(=O)C3CCCCC3)ccc2O[C@H]1CN(C)C(=O)Nc1cccc2ccccc12	23	-4	0.3	0.35
Cc1ccc(S(=O)(=O)N(C)C[C@@H]2Oc3ccc(NC(=O)Nc4ccc(F)cc4)cc3C(=O)N([C@@H](C)CO)C[C@H]2C)cc1	-12	-48	-0.7	0.27
C[C@@H]1CN([C@H](C)CO)C(=O)Cc2cc(NC(=O)c3ccncc3)ccc2O[C@H]1CN(C)S(C)(=O)=O	.	-4	0.9	0.051
C[C@@H]1CN([C@H](C)CO)C(=O)c2cc(NS(=O)(=O)c3cn(C)cn3)ccc2O[C@H]1CN(C)S(=O)(=O)c1ccccc1	-18	13	2.1	-0.026
O=C(Cn1nnc2sc3c(c2c1=O)CCCC3)NCc1ccco1	.	17	-0.8	.
Cc1cccc(N=Cc2c(O)n(-c3ccccc3)c(=O)c3ccccc23)c1	-11	-18	0.8	-0.028
Cc1cc(C)n2nc(SCC(=O)c3ccc4c5c(cccc35)CC4)nc2n1	.	-19	-4.5	.
CC(C)NC(=O)N(C)C[C@@H]1Oc2c(NC(=O)Nc3ccc(F)cc3)cccc2C(=O)N([C@H](C)CO)C[C@@H]1C	-17	-3	-0.1	1.8
Cc1ccc(S(=O)(=O)Nc2ccc3c(c2)C(=O)N([C@H](C)CO)C[C@@H](C)[C@@H](CN(C)C(=O)NC(C)C)O3)cc1	.	-3	0.2	-0.43
C[C@@H]1CN([C@H](C)CO)C(=O)Cc2cc(NC(=O)CCN3CCOCC3)ccc2O[C@H]1CN(C)Cc1ccc(-c2ccccc2)cc1	15	-26	-0.4	-0.094
COc1ccc(S(=O)(=O)N(C)C[C@H]2Oc3c(NC(=O)c4cc(C)nn4C)cccc3C(=O)N([C@H](C)CO)C[C@H]2C)cc1	-1	-15	.	-0.53
Cc1noc(C)c1NC(=O)N(C)C[C@@H]1Oc2ccc(NC(=O)Nc3ccc(C(F)(F)F)cc3)cc2C(=O)N([C@H](C)CO)C[C@@H]1C	-12	-16	-0.5	0.22
O=C(CSc1nnc2ccccn12)Nc1c(Cl)cc(Cl)cc1Cl	.	-6	0.1	.
COc1ccc(CN(C)C[C@H]2Oc3ccc(NC(=O)Cc4cn(C)c5ccccc45)cc3CC(=O)N([C@@H](C)CO)C[C@@H]2C)cc1	-4	19	.	0.27
O=C(NC1CCS(=O)(=O)C1)c1ccc(S(=O)(=O)NCC2CCCO2)cc1 (stereo not drawn)	.	2	1.6	.
Cc1noc(C)c1S(=O)(=O)Nc1ccc2c(c1)C(=O)N([C@H](C)CO)C[C@@H](C)[C@H](CN(C)Cc1ccc3c(c1)OCO3)O2	2	3	.	-0.072
Cc1ccc(NC(=O)CCN2C(=O)c3ccccc3S2(=O)=O)cc1Cl	.	-15	0.2	.
CC(C)NC(=O)Nc1cccc2c1O[C@@H](CN(C)S(=O)(=O)c1cccs1)[C@@H](C)CN([C@H](C)CO)C2=O	-8	-7	1.3	0.34
COc1c(C(O)CC(C)C)ccc2c1C(=O)OCc1cc(C)cc(O)c1O2 (stereo not drawn)	21	40	2.5	0.047
COc1ccc(CN(C)C[C@H]2Oc3c(NS(=O)(=O)c4ccc(C)cc4)cccc3C(=O)N([C@@H](C)CO)C[C@@H]2C)cc1	1	-11	-1.3	0.081
COc1ccc(S(=O)(=O)N(C)C[C@H]2Oc3ccc(NC(=O)Cn4cnnn4)cc3C(=O)N([C@H](C)CO)C[C@H]2C)cc1	24	-1	1.1	0.12
C[C@@H]1CN([C@@H](C)CO)C(=O)Cc2cc(NS(C)(=O)=O)ccc2O[C@@H]1CN(C)C(=O)Nc1ccc2c(c1)OCO2	-7	0	0.3	0.33
C[C@H](CO)N1C[C@H](C)[C@@H](CN(C)Cc2ccc(Oc3ccccc3)cc2)Oc2ccc(NC(=O)Nc3ccc(C(F)(F)F)cc3)cc2C1=O	-9	-9	.	0.24
C[C@@H]1CN([C@@H](C)CO)C(=O)Cc2cc(NC(=O)Nc3ccc(C(F)(F)F)cc3)ccc2O[C@@H]1CN(C)C	1	-20	.	0.018
C[C@@H]1CN([C@@H](C)CO)C(=O)c2cccc(NC(=O)NC3CCCCC3)c2O[C@@H]1CN(C)C	-1	-15	-0.1	0.074
COc1ccc(CC(=O)N(CC#N)CC#N)cc1OC	-6	1	0.2	-0.11
COc1ccc(S(=O)(=O)N(C)C[C@@H]2Oc3ccc(NC(=O)NC(C)C)cc3C(=O)N([C@H](C)CO)C[C@H]2C)cc1	-22	-1	-0.4	-0.24
COc1ccc(NC(=O)N(C)C[C@H]2Oc3ccc(NS(=O)(=O)c4cn(C)cn4)cc3C(=O)N([C@@H](C)CO)C[C@H]2C)cc1	1	-12	-1.2	0.16
C[C@H]1CN([C@@H](C)CO)C(=O)Cc2cc(NS(C)(=O)=O)ccc2O[C@@H]1CN(C)Cc1ccc(-c2ccccc2)cc1	-2	1	.	-0.054
COc1cc(N)c(Cl)cc1C(=O)OCCCN1CCCCC1	23	-6	0.3	0.21
COc1ccc(NC(=O)N(C)C[C@H]2Oc3c(NC(=O)c4ccc(-c5nccs5)cc4)cccc3C(=O)N([C@@H](C)CO)C[C@H]2C)cc1	17	3	0.7	-0.1
